High-throughput results from PubChem.
NPYLR7 ag: agonists of mosquito NPYLR7 receptor, primary screen, cell-based, Aedes aegypti, calcium fluorescence, mosquito biting behavior | Aedes aegypti neuropeptide Y-like receptor 7 (NPYLR7) | HEK293T NPYLR7/Galpha15, GCaMP6s calcium fluorescence | activation, % at 10 µM | hit rate 0.15% among 270,000; in the data active means activation above about 40%;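 further: 0% = vehicle and 100% = reference agonist at the receptor; some compounds past the cut are filed as inactive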
NPYLR7 ag max-min: second read-out of NPYLR7 ag, no call of its own (marks repeat the call); activation, %; measured here: Max-Min RFU normalised activation; some inactives read as strong as hits;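 span of the calcium signal over five minutes; 0% = vehicle and 100% = native peptide agonist; compound fluorescence can raise it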
* marks the source's active call; other numbers are inactive results; & = joins results of further samples. An excerpt (hit frequency here may not be typical).

cpd	compound	NPYLR7 ag	NPYLR7 ag max-min
1	CCN(CC)C(=O)Oc1ccc2c(ccn2Cc2ccc(Cl)cc2)c1NC(=O)c1c(F)c(F)cc(F)c1F	10	16
2	CCOC(=O)c1ccc(N2C(=O)C3C4C=CC(C4=C(C)C)C3C2=O)cc1 (stereo not given)	0	-1
3	Cc1ncc(C)c(N2CC[C@@H](N3CCN(c4ccccn4)CC3)[C@H](O)C2)n1	7	3
4	CN(C1CCC(CO)CC1)S(=O)(=O)c1cccc(Cl)c1F (stereo not given)	4	1
5	S=C1NC2=C(CCC2)C2(CCCC2)N1	5	7
6	CC(C)c1ccc(N2CCCC(n3cc(C(=O)NC4CCCC4)nn3)C2)nn1 (stereo not given)	-3	-4
7	CCOC(=O)c1cc(-c2cccc(NC(=O)c3cc(Cl)nc(OC)c3)c2)n(-c2ccccn2)n1	27	12
8	COC(=O)[C@@H]1C[C@@H](N(C)C)CN1CC1=Cc2cccc(OC)c2OC1	12	8
9	Cc1nc2n(n1)C(=O)C(C(c1cccs1)N1CCN(c3ccccc3)CC1)S2 (stereo not given)	-1	-2
10	c1csc(C2=NNC(=NC3CCCCC3)SC2)c1	0	-1
11	CC(C)(C)c1csc(NC(=O)c2ccc([N+](=O)[O-])cc2)n1	-6	-9
12	COC(=O)CCC(=O)N1CCC(c2nc(-c3ccc(OC)cc3)no2)CC1	5	-1
13	Cc1noc(C)c1C(=O)Nc1ccc(NC(=O)N2CCCCCC2)cc1	1	45
14	Cn1c(=O)c(C(=O)Nc2ccccn2)c(O)c2ccccc21	10	6
15	COc1ccc(OCCNC(=O)COc2ccc(Cl)cc2)cc1	1	-2
16	CC(C)NC(=O)NC(=O)Cn1cnc2ccc(Br)cc2c1=O	6	1
17	CC(C)N1CCn2nc(C(=O)NCC3COCCO3)cc2C1 (stereo not given)	2	-1
18	CN(C)c1ccc(NC(=O)NC2CC2c2ccccc2)cn1 (stereo not given)	-20	-23
19	Cc1nc(N2CCC(C(=O)NCCCn3ncc4ccccc43)CC2)nc2ccc(C(C)C)cc12	3	-2
20	Cc1cc(NC(=O)CCS(C)(=O)=O)ncc1Br	2	0
21	CC(C)NC(=O)[C@@H]1C[C@H](N)CN1Cc1ccnn1-c1ccccc1	22	11
22	Fc1cccc(Cl)c1CNc1n[nH]c(NCc2c(F)cccc2Cl)n1	-12	-17
23	O=C(CSc1nnc(C2CC2)n1C1CC1)NCc1ccco1	0	3
24	CCc1[nH]n(-c2ccc(Cl)c(Cl)c2)c(=O)c1C1=C(N(C)C2CCCCC2)C(=O)N(c2ccccc2F)C1=O	3	3
25	CNc1cncc(-c2ccc(F)cc2)n1	0	0
26	CCN(Cc1ccc(Cl)cc1)C(=O)[C@@H]1C[C@H]1c1ccccc1	1	1
27	NS(=O)(=O)c1cc([N+](=O)[O-])ccc1Cl	2	2
28	CC(C)(C)OC(=O)N1CCCCC1CNc1nc2ccccc2o1 (stereo not given)	1	-4
29	COc1ccc(CCNC(=O)c2ccccc2N2CCC(NC(=O)c3ccco3)CC2)cc1	21	19
30	COc1ccc(-c2nn(-c3ccc(C)cc3C)c(OC(C)=O)c2-c2ccc(NC(=O)c3cccs3)cc2)c(OC)c1	17	11
31	CC1(C(=O)NS(=O)(=O)c2cccc(F)c2)CCN1C(=O)CCC1CCCC1 (stereo not given)	8	8
32	COc1cc(NS(=O)(=O)c2cc(C(=O)O)cc(Br)c2C)cc(OC)c1	1	0
33	Cn1c(=O)c2c(nc(CN(Cc3ccccc3)Cc3ccccc3)n2CCCO)n(C)c1=O	0	15
34	CCc1cc(N2CCN(C(=O)c3ccc(C)cc3)CC2)n2ncnc2n1	1	-1
35	CCNC(=S)N[C@@H]1C=C(C(=O)NCCC(N)=O)C[C@@H](O)[C@@H]1O	-8	-15
36	CC(C)[C@@H]1CC[C@@H](C)C[C@H]1OCC(=O)N1CCN(Cc2cc(=O)c(OCc3cccc(F)c3)co2)CC1	0	9
37	C[C@H]1O[C@H](O[C@H]2[C@H](O)[C@@H](O)[C@@H](O[C@H]3[C@H](O)[C@@H](O)C(O)O[C@@H]3CO)O[C@@H]2CO)[C@H](O)[C@@H](O)[C@@H]1N[C@H]1C=C(CO)[C@@H](O)[C@H](O)[C@H]1O (stereo not given in full)	-9&4	-17&-6
38	N#Cc1ccc(-c2csc(NC3CCCCC3)n2)cc1	0	-2
39	Cc1nc(CCC(=O)N2CCC(CC(C)C)C2)n[nH]1 (stereo not given)	-1&0	2&0
40	CC(=O)Oc1ccc(CN2C(=O)C(Cc3cccc(F)c3)ON=C2C)cc1 (stereo not given)	13	7
41	CC(CCc1ccccc1)NC(=O)C(C)N1C(=O)CS/C1=C\C(=O)C(C)(C)C (stereo not given)	0	14
42	N#Cc1ccccc1S(=O)(=O)Nc1ccc2n(c1=O)C[C@H]1C[C@@H]2CN(C(=O)Cc2cccs2)C1	-7	-14
43	OCC1(Cc2ccc(F)cc2F)CCCNC1 (stereo not given)	5	5
44	CC(C)NC(=O)N(Cc1ccc(F)cc1F)CC1CC(c2ccc(Cl)cc2)=NO1 (stereo not given)	21	18
45	Cc1ccc(NC2=C(Cl)C(=O)N(CC(C)C)C2=O)cc1	20	10
46	Cc1cc(Br)ccc1NC(=O)CN1CCn2cccc2C1C (stereo not given)	-2	-2
47	c1cc(CN2CCCN(C3CCC4(CCNCC4)CC3)CC2)ccn1	6	4
48	CC(=O)c1c2c(n3ccc(C)cc13)C(=O)c1ccccc1C2=O	-2	-9
49	COc1cccc(OC)c1C(=O)N(CC(=O)N(CCc1c[nH]c2ccccc12)Cc1ccccc1)C(C)C	27	32
50	Fc1cccc(CN2CCN(CC3CCOC3)CC2)c1 (stereo not given)	-3	-7
51	CC1CCc2cc(F)ccc2N1C(=O)c1ccc(Cn2cc(Cl)cn2)cc1 (stereo not given)	-6	-7
52	CN(CCc1ccccn1)C1CCCN(C/C=C/c2ccc(F)cc2)C1 (stereo not given)	-2	-3
53	CN(C)c1ccc(N2CCN(C(=O)c3cn4ccccc4n3)CC2)cc1	-7	-8
54	CCC(C(=O)Nc1ccc(C)cc1C)n1nnc(-c2ccc(Cl)cc2)n1 (stereo not given)	13	6
55	O=C(c1cc2nc(-c3ccc(F)cc3)cc(C(F)(F)F)n2n1)N1CCCc2ccccc21	-14	-18
56	Cc1cccc(Cl)c1NC(=O)N1CCN(CC(C)C)C(=O)C1C (stereo not given)	2	2
57	C=CCn1c(SCc2ccc(C(=O)Nc3ccc(OC)cc3)cc2)nnc1-c1ccco1	4	11
58	COc1cccc(Nc2ncc3c(n2)CCN(C(=O)c2ccc4nc[nH]c4c2)C3)c1	-2	-5
59	Cn1nc(C(=O)OCC(=O)Nc2cccc(C(F)(F)F)c2)c2ccccc2c1=O	1	-1
60	COC(=O)Nc1ccc(OCc2nc(C)c(C)s2)cc1	3	3

Remaining list, next part
cpd	compound	NPYLR7 ag	NPYLR7 ag max-min
61	CC(C)NC(=O)N(Cc1cccc(C(F)(F)F)c1)CC1CC(c2cccc(F)c2)=NO1 (stereo not given)	16	12
62	S=P(C1=C(N2CCOCC2)C(=Cc2ccccc2)CC1)(c1ccccc1)N1CCOCC1 (stereo not given)	3	3
63	O=C(NCc1csc(-c2cnccn2)n1)c1nc2c(s1)CCCC2	2	-1
64	COc1ccc(CN2CC(O)CN(C(=O)OC(C)(C)C)CC2=O)cc1 (stereo not given)	4	7
65	CC(SC1CCCC1)C(=O)Nc1ccc2c(c1)OCO2 (stereo not given)	-14	-18
66	Cc1ccc(CN(CCc2ccccc2)C(=O)CN(Cc2ccco2)Cc2cc(F)ccc2F)o1	-3	-2
67	COc1ccc(-c2nnc(SCC(=O)c3cc(F)ccc3F)o2)cc1OC	-2	-6
68	Cc1ccccc1-n1ncc2c(C3CC3)nn(CC(=O)Nc3cccc(Cl)c3)c(=O)c21	5	3
69	Cc1nn2c(NCc3cccnc3)c3c(nc2c1-c1ccccc1)CCC3	4	5
70	C#CCN1CCCC1COC(=O)CSCC1CCCCO1 (stereo not given)	2	-1
71	Cc1ccc(C(=O)N2CCC(c3n[nH]c(=O)n3-c3ccccc3)CC2)s1	6	4
72	CC(C)Nc1ccc(-c2cc(N)nc3[nH]ccc23)nn1	2	2
73	CCCCCCn1c(N2CCCCC2)nc2c1c(=O)[nH]c(=O)n2C	5	1
74	Cc1ccc(F)c(-c2ncccc2NC(=O)C(C)C)c1	11	4
75	CCN(Cc1ccc2c(c1)OCO2)Cc1nc(C(C)(C)C)no1	-1	-1

3 entries out of the list, sorted by length of the SMILES, rising:
cpd	compound	NPYLR7 ag	NPYLR7 ag max-min
71	Cc1ccc(C(=O)N2CCC(c3n[nH]c(=O)n3-c3ccccc3)CC2)s1	6	4
62	S=P(C1=C(N2CCOCC2)C(=Cc2ccccc2)CC1)(c1ccccc1)N1CCOCC1 (stereo not given)	3	3
68	Cc1ccccc1-n1ncc2c(C3CC3)nn(CC(=O)Nc3cccc(Cl)c3)c(=O)c21	5	3

(more compounds)
cpd	compound	NPYLR7 ag	NPYLR7 ag max-min
76	Cc1nc(CCNC(=O)C2=NNC(=O)CC2)nc2c1CCCC2	-2	-13
77	O=C(CSc1nccn(-c2ccc3c(c2)OCCO3)c1=O)c1ccccc1	0	2
78	Cc1ccc2c(c1)CCCN2C(=O)c1ccc(C(N)=O)cc1	0	1
79	CCOC(=NC(=O)c1cccc(OC)c1)N(C)C1CCN(C)CC1	21	21
80	Cc1noc(-c2cccnc2)c1C(=O)NCc1cccs1	2	8
81	Cc1nc2ncccn2c1C(=O)N1CCCC(CO)(CCc2ccccc2)C1 (stereo not given)	0	-1
82	Cc1nsc(N2CCN(C3CC4CCC3C4)CC2)n1 (stereo not given)	3	3
83	CC(OC(=O)CC(C)(C)C)c1nc2cc(Cl)ccc2n1C (stereo not given)	2	-2
84	COc1ccc(C2CC(c3ccc(Br)s3)=Nc3nnnn32)c(OC)c1 (stereo not given)	17	12
85	O=C(OCc1nc(C(=O)Nc2cccc3c2CCCC3)cs1)c1ccccc1	-17	-20
86	COC(=O)c1ccc(Oc2c(C)oc3c4c(ccc3c2=O)OCN(Cc2ccccn2)C4)cc1	-10	-12
87	O=c1c2cnc(N3CCCCC3)nc2ccn1-c1ccc(Cl)c(Cl)c1	-2	6
88	COc1cccc(C(=O)N2CCc3ccccc3C2c2ccccc2F)c1 (stereo not given)	-3	5
89	COc1ccccc1-n1ncc2c(C(C)C)nnc(SC)c21	-9	-18
90	COc1ccc(-n2c(SCC(=O)N3CCC(C)CC3)nc3c([nH]c4ccccc43)c2=O)cc1	0	38
91	Cc1nc(N2CCC(C(N)=O)CC2)nc(Nc2ccc(F)cc2)c1[N+](=O)[O-]	-6	-8
92	COC(=O)C(C)Sc1ccc(NC(=O)C2CC2)nn1 (stereo not given)	-1	-3

Gathered by group: the compounds so far with an aryl methoxy group (17)
cpd	compound	NPYLR7 ag	NPYLR7 ag max-min
7	CCOC(=O)c1cc(-c2cccc(NC(=O)c3cc(Cl)nc(OC)c3)c2)n(-c2ccccn2)n1	27	12
8	COC(=O)[C@@H]1C[C@@H](N(C)C)CN1CC1=Cc2cccc(OC)c2OC1	12	8
12	COC(=O)CCC(=O)N1CCC(c2nc(-c3ccc(OC)cc3)no2)CC1	5	-1
15	COc1ccc(OCCNC(=O)COc2ccc(Cl)cc2)cc1	1	-2
29	COc1ccc(CCNC(=O)c2ccccc2N2CCC(NC(=O)c3ccco3)CC2)cc1	21	19
30	COc1ccc(-c2nn(-c3ccc(C)cc3C)c(OC(C)=O)c2-c2ccc(NC(=O)c3cccs3)cc2)c(OC)c1	17	11
32	COc1cc(NS(=O)(=O)c2cc(C(=O)O)cc(Br)c2C)cc(OC)c1	1	0
49	COc1cccc(OC)c1C(=O)N(CC(=O)N(CCc1c[nH]c2ccccc12)Cc1ccccc1)C(C)C	27	32
57	C=CCn1c(SCc2ccc(C(=O)Nc3ccc(OC)cc3)cc2)nnc1-c1ccco1	4	11
58	COc1cccc(Nc2ncc3c(n2)CCN(C(=O)c2ccc4nc[nH]c4c2)C3)c1	-2	-5
64	COc1ccc(CN2CC(O)CN(C(=O)OC(C)(C)C)CC2=O)cc1 (stereo not given)	4	7
67	COc1ccc(-c2nnc(SCC(=O)c3cc(F)ccc3F)o2)cc1OC	-2	-6
79	CCOC(=NC(=O)c1cccc(OC)c1)N(C)C1CCN(C)CC1	21	21
84	COc1ccc(C2CC(c3ccc(Br)s3)=Nc3nnnn32)c(OC)c1 (stereo not given)	17	12
88	COc1cccc(C(=O)N2CCc3ccccc3C2c2ccccc2F)c1 (stereo not given)	-3	5
89	COc1ccccc1-n1ncc2c(C(C)C)nnc(SC)c21	-9	-18
90	COc1ccc(-n2c(SCC(=O)N3CCC(C)CC3)nc3c([nH]c4ccccc43)c2=O)cc1	0	38
